VDR inhibitor: Inhibitors of the vitamin D receptor (VDR): qHTS | VDR-SRC2-3 peptide fluorescence polarization, 2 h | 0.93% of 400,000 active | AID 504847, 2011 | Vitamin D3 receptor (Homo sapiens), P11473 | Potency, µM, for inactives: max response, negative = inhibition, most hits filed as inhibitors; active means well fitted inhibition curve with a large enough effect; inconclusive means small, poorly fitted or top-dose-only effect, or another doubt; inactive means no such curve, though single readings can be large or run the other way; further: series mostly up to about 120 µM
Target sequence (P11473 whole entry, looked up): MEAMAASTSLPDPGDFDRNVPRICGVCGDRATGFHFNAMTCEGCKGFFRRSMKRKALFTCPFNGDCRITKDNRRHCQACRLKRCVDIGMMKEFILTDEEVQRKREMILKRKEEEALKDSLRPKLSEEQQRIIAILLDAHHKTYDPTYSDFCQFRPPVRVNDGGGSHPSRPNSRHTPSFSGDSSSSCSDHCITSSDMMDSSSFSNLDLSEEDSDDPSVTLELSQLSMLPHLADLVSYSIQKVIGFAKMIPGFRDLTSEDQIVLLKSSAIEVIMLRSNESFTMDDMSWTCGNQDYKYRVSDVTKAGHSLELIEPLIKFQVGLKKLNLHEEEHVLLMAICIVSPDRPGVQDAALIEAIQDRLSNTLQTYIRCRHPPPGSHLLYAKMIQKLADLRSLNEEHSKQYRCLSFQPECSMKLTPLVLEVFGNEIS
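Signal is fluorescence polarization, reporting how far test compounds block the interaction of VDR with the SRC2-3 coregulator peptide after a 2 h room-temperature incubation.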
The depositor's hits bear a star; u = inconclusive; & = joins results of further samples. On the % scale 0 is the no-effect control and ±100 the full control effect; potency means the concentration at half of the fitted maximal effect.

SMILES	VDR inhibitor
COc1ccc(NC2CCCN(C(=O)CSc3ccccn3)C2)cc1OC (configuration not stated)	-10.8%
CCCOc1ccc(C(=O)CCNc2cccc(Cl)c2)cc1	-3.5%
C/C(=N\NC(=O)c1ccc(NS(=O)(=O)c2cccs2)cc1)c1ccccc1	-2.4%
CCN(CC)C(=O)Oc1ccc(Br)cc1C(=O)Nc1ccc(F)cc1F	3.1%
Cc1ccc(Cl)cc1N1CCN(C(=O)CCSCc2ccccc2F)CC1	9.7%
O=C(Oc1coc(CSc2ncccn2)cc1=O)c1ccccc1[N+](=O)[O-]	-16.2%
COC(=O)CSc1nc(N)c2c3c(sc2n1)CCCC3	9.0%
Cc1ccc(NC(=O)CN2C(=O)CSc3ccc(S(=O)(=O)N4CCCC4)cc32)c(C)c1	1.7%
O=c1c(-c2ccccc2)[n+]([O-])c2ccccc2n1O	1.2%
N#C/C(=C/c1ccccc1)C(=O)NCc1ccccc1	-18.0%
CCn1c2ccccc2c2cc(NC(=O)COc3cccc(C)c3)ccc21	-9.9%
COC(=O)CC1C(=O)NCCN1C(=O)OC(C)(C)C (configuration not stated)	13.0%
O=C(C1CC1)N1CCN=C1SCc1ccccc1	15.9%
COc1cc(CNC(=O)CCCC(=O)c2ccccc2)cc(OC)c1OC	-28.9%
CC(=O)c1cc(CN2C(=O)CCC2=O)cs1	2.4%
O=C(Cc1cccs1)NCc1cn2ccccc2n1	0.5%
O=C(Nc1cccc(O)c1)c1cc(S(=O)(=O)N2CCCC2)ccc1Cl	-19.4%
O=C(CNC(=O)OCc1ccccc1)Oc1cc2oc(=O)cc(-c3ccccc3)c2cc1Cl	15.6%
CN(C)CCN(C(=O)c1ccc(S(=O)(=O)N(C)CC2CCCO2)cc1)c1nc2cc3c(cc2s1)OCO3 (configuration not stated)	10.8%
O=S(=O)(NCc1cccnc1)c1ccc(Cl)cc1	-17.6%
Cc1ccc(CN(Cc2ccco2)C(=O)COc2cccc(C)c2C)o1	4.3%
COC(=O)c1ccccc1NC(=O)CSc1n[nH]c(C)n1	7.6%&-6.5%
CCc1ccccc1NCc1nnc2n1CCCCC2	7.3%
Cn1c(=O)n(C)c2cc(/C=N/NC(=O)c3cccc(Br)c3)ccc21	-11.5%
CC(=O)c1ccc(OCC(=O)N2CCN(S(=O)(=O)c3ccc(C)cc3C)CC2)cc1	2.9%
Cc1c(Cl)ccc(S(=O)(=O)NCCCn2ccnc2)c1Cl	-11.1%
COc1ccc(-c2nc3cnc(OC)nc3n(-c3ccccc3)c2=O)cc1	-2.4%
Cc1cccc(-n2c(C)nc3cc(C(=O)N4CCOCC4)ccc32)c1	u
CC(=O)N1CCN(C(=O)CCc2nnc(CCCCc3ccccc3)o2)CC1	-11.5%
O=C(CSc1ccc(Cl)cc1)N/N=C/c1cccnc1	-1.1%
CNc1cc(-c2c(C)noc2C)ncn1	-3.8%
COc1cc(CC(=O)OCC(=O)NCc2ccco2)cc(OC)c1OC	-2.5%
CC(Sc1nnc2ccccn12)C(=O)Nc1ccc2c(c1)OCO2 (configuration not stated)	5.7%
O=[N+]([O-])c1ccc(NS(=O)(=O)c2ccccc2)c(Cl)c1	-7.2%
Cc1c(C(=O)Nc2ccc3nc(N4CCOCC4)sc3c2)oc2ccccc12	1.9%
COC(=O)c1onc(C(=O)c2ccccc2)c1C(=O)OC	2.7%

Molecules listed so far containing a furan ring, fused or not:
SMILES	VDR inhibitor
Cc1ccc(CN(Cc2ccco2)C(=O)COc2cccc(C)c2C)o1	4.3%
COc1cc(CC(=O)OCC(=O)NCc2ccco2)cc(OC)c1OC	-2.5%
Cc1c(C(=O)Nc2ccc3nc(N4CCOCC4)sc3c2)oc2ccccc12	1.9%

Next section.
SMILES	VDR inhibitor
Cn1c2c(c(=O)[nH]c1=O)C(c1ccc(O)cc1)C1=C(N2)c2ccccc2C1=O (configuration not stated)	-16.0%
O=C(NC1CC2CCCC(C1)N2C(=S)Nc1ccc(Cl)cc1)C1CC1 (configuration not stated)	1.9%
CO[C@]12C(COC(N)=O)C3=C(C(=O)C(C)=C(N)C3=O)N1CC1NC12 (some centres not stated)	-3.3%
COc1ccccc1N1CCN(CCCCNS(=O)(=O)c2cccc3c(N(C)C)cccc23)CC1	-11.6%
CCOc1ccc(-c2ccc3nnc(SCC(=O)NCC4CCCO4)n3n2)cc1 (configuration not stated)	-5.5%
CCOC(=O)c1ccccc1NC(=O)COC(=O)CN1C(=O)NC2(CCCC2)C1=O	-11.6%
CCCC(=O)Nc1c2c(nn1-c1ccc(C)cc1)CS(=O)(=O)C2	-7.9%
COc1ccc(C2C3=C(CC(C)(C)CC3=O)Nc3c2c(=O)[nH]c2nc(C)nn32)cc1 (configuration not stated)	2.9%
Fc1ccc(/C=N/N2CCOCC2)c(F)c1	16.6%
CCCOc1cccc(C(=O)O)c1	-9.2%
Cc1ccc(C(=O)NCC(=O)OCC(=O)c2ccc(Br)s2)cc1	7.2%
O=S(=O)(N1CCOCC1)n1c(Cc2ccccc2)nc2ccccc21	-7.3%
CC(=O)Nc1ccc(Nc2ncc([N+](=O)[O-])c(Nc3ccc(NC(C)=O)cc3)n2)cc1	-0.4%
CCCc1nc(SCC(=O)N2CCCC2)c2c(=O)n(C)c(=O)n(C)c2n1	6.5%
COc1ccc(-c2nnc(SCC(=O)NC(C)C)n2CC2CCCO2)cc1OC (configuration not stated)	-9.8%
Cc1cc(C)n(CC(=O)NNC(=O)CC(C)c2ccccc2)n1 (configuration not stated)	-2.2%
COCCn1c(=O)c(-c2ccccc2)nc2cnc(OCc3ccccc3)nc21	-13.4%
COc1cc(NC(=S)Nc2cccnc2)cc(OC)c1OC	-0.9%
CCOC(=O)CN1NC2(CCCC(C)C2)NC1=S (configuration not stated)	6.1%
COC(=O)c1ccc(CN2CCC(Oc3ccc(C(=O)N4CCCCC4)cc3)CC2)cc1	-1.6%
CC(=C\C(=O)O)/C(=C/c1ccccc1)C(=O)O	19.0%
CN(C)c1ccnc2c[cH-]cc12.[Fe].c1ccc(-[c-]2[c-](-c3ccccc3)[c-](-c3ccccc3)[c-](-c3ccccc3)[c-]2-c2ccccc2)cc1 (configuration not stated)	-9.0%&-9.3%
CCCCCCOc1ccc(C2C(=O)N(C3CCCCC3)CC(=O)N2C2CCCCC2)cc1 (configuration not stated)	0.0%
Cc1ccc(S(=O)(=O)N(C)C)cc1NC(=S)NC(=O)C12CC3CC(CC(C3)C1)C2	0.0%
Cc1cccc(NC(=S)NCCSc2ccc(Cl)cc2)c1	-2.2%
COc1ccc(NC(=O)/C(=C\c2ccccc2)NC(=O)c2ccco2)cc1	9.4%
COc1ccc(Cl)cc1NC(=S)NCc1ccc(S(N)(=O)=O)cc1	-0.5%
CC(C)[C@H](CO)N(Cc1cccc(F)c1)c1nc(Nc2cccc(Cl)c2)c2ncn(C(C)C)c2n1	-14.3%
Cc1c(Cl)cccc1Nc1nn2c(=O)c3ccc(C(=O)NCCc4ccccc4)cc3nc2s1	0.1%
O=S(=O)(Nc1ccc(-c2csc(-c3ccccc3)n2)cc1)c1ccc(F)cc1	5.1%
CCOc1ccc(NC(=O)CSC2=C(C#N)C(c3ccc4c(c3)OCO4)CC(=O)N2)cc1 (configuration not stated)	11.4%
COc1ccc(OC(C)C(=O)Nc2ccc(F)cc2F)cc1 (configuration not stated)	3.2%
CCC(C)(C)n1nnnc1C(c1ccc2ncccc2c1)N1CCN(Cc2ccc3c(c2)OCO3)CC1 (configuration not stated)	20.6%
N#CCC1c2ccccc2CCN1C(=O)Nc1cccc(C(F)(F)F)c1 (configuration not stated)	-4.2%
COc1ccc(-c2nc3ccccc3c(=O)[nH]2)cc1	-2.6%
Cc1cc(C)cc(NC(=S)N2CCCC2)c1	9.1%
COc1cccc(NC(=O)c2cccc(N3C(=O)C4C5C=CC(C5)C4C3=O)c2)c1 (configuration not stated)	3.8%
CN(Cc1ccccc1)C(=O)c1ccc(NC(=O)Cc2cccc(NC(=O)C3CCCN(C(=O)C4CCC4)C3)c2)cc1 (configuration not stated)	-6.0%
CCCNC(=O)C(=O)Nc1cc2c3c(c1)CCC(=O)N3CCC2	-5.0%
CCOc1ccccc1NC(=O)CSc1c2c(nc3ccc(Cl)cc13)CCCC2	-11.7%
COCCCN1C(=O)c2ccc(C(=O)Nc3ccc(C)cc3C)cc2C1=O	-1.2%
Cc1cc(C)nc(N2CCCC(C(=O)NCc3ccc4c(c3)OCO4)C2)n1 (configuration not stated)	-2.2%
O=C1CCCN1CCCNS(=O)(=O)c1cccc(F)c1	2.2%
Cc1[nH]nc(N)c1-c1ccc(Cl)cc1	-14.5%
N/C(=N\OC(=O)COc1ccccc1)c1cccnc1	-9.4%
COc1ccc([C@@H]2C[C@@H](c3ccccc3)Oc3cc(OC)cc(OC)c32)cc1	3.1%
COC(=O)c1cnn2c(C(F)(F)F)cc(-c3ccco3)nc12	-2.3%
CC(C)(C)c1ccc(NNC(=O)C2CCC2)cc1	-10.7%
CCN(CC)CCCNC(=S)N(Cc1cccnc1)Cc1cc2cccc(C)c2[nH]c1=O	-8.3%
CNc1nc(Nc2ccc([N+](=O)[O-])cc2)nc(OCC(F)(F)F)n1	12.8%
CN(C)C(=S)N=c1ssc(=S)n1Cc1cccnc1	50.1µM*
O=C(Nc1ccc(-n2cccc2)cc1)C1CC1	5.4%
CNC(=O)[C@]1(C(F)(F)F)C[C@H](CCC2CCCCC2)CCCO1	1.1%
CC(NC(=O)C(=O)NN=C1CCCCCCCCCCC1)c1ccccc1 (configuration not stated)	1.3%
CCC/C(=C1/c2ccccc2C(=O)N1c1ccccc1)c1ccc(O[C@@H]2CCCCO2)cc1	-28.9%
CC(C)C(C)NC(=O)COc1ncnc2ccccc12 (configuration not stated)	-7.3%
CCCCSc1nc(C)c(CC(=O)O)c(=O)[nH]1	-8.0%
COc1ccccc1NC(=S)N1CCN(Cc2ccccc2)CC1	10.1%
O=C(Cn1cc(C(=O)C(F)(F)F)c2ccccc21)N1CCCCCC1	-0.6%
Cc1ccccc1CN1CCN(Cc2cc3ccccc3o2)CC1CCO (configuration not stated)	-1.1%
The list goes on.
SMILES	VDR inhibitor
CC1(C)S[C@@H]2[C@H](NC(=O)[C@@H](N)c3ccccc3)C(=O)N2[C@H]1C(=O)O[C@H]1OC(=O)c2ccccc21	-7.2%
O=[N+]([O-])c1ccc(NCCNCCOc2nonc2-c2ccccc2)c([N+](=O)[O-])c1	11.4%
CN(CC1CCOCC1)C(=O)CC1C(=O)NCCN1Cc1ccc(-c2ccccc2)cc1 (configuration not stated)	13.2%
N#C/C(=C\c1c(Cl)cccc1Cl)c1nc2ccccc2o1	-28.1%
Cc1ccc(S(=O)(=O)c2nc(S(C)(=O)=O)sc2N2CCC(O)CC2)cc1	-13.3%
O=C1CN(C(=O)CSc2nnc(Nc3ccccc3)s2)c2ccccc2N1	-6.4%
CC(C)CNc1nc(=S)nc(N(C)C)[nH]1	-14.2%
CC(=NNC(=O)c1cccc(S(=O)(=O)N2CCOCC2)c1)c1ccccc1	-7.8%
COc1cc(-c2nnc(SCC(=O)N3c4ccccc4Sc4ccccc43)o2)cc(OC)c1OC	5.5%
CCc1nc(N2CCN(CC(=O)NCC3CCCO3)CC2)c(C#N)c2c1COC(C)(C)C2 (configuration not stated)	7.6%
CCCc1cc(=O)oc2cc(C)cc(OCC(=O)NCCCN3CCOCC3)c12	7.8%
COc1ccc(-n2nnnc2SCC(=O)NC(=O)Nc2ccc3c(c2)OCCO3)cc1	6.0%
CC(C)(C)NC[C@@H](O)COc1ccccc1C1CCCC1	0.3%
O=S(=O)(c1ccccc1)N1CCN(CC2CC3C=CC2C3)CC1 (configuration not stated)	-8.3%
CC1(C)N([O-])C(c2cccs2)=C[N+]1=O	-0.9%
Cc1cc(=O)oc2cc(OCCCN3C(=O)c4ccccc4C3=O)ccc12	-16.1%
Cc1cccc(C(=O)OCC(=O)Nc2sc3c(c2C#N)CCC3)c1	-14.4%
Cc1nn2c(=O)cc(COC(=O)c3ccccc3NC(=O)C(C)C)nc2s1	-2.1%
CC(=O)N/C(=C\c1ccc(C)o1)C(=O)NCc1ccccc1	-15.2%
O=C(CSc1nnc(-c2ccccc2F)o1)NC(=O)Cc1ccccc1	18.5%
Cc1ccccc1Nc1nnc(SCc2cc([N+](=O)[O-])cc3c2OCOC3)s1	9.6%
O=C(CN1C(=O)COc2ccccc21)NCCC1=CCCCC1	26.3%
O=C(Nc1cccc2ccccc12)ON=C1CCCCC1	-6.2%
CCOC(=O)c1cnc2c(cnn2CC)c1NN=C(C)C	u

Random excerpt: 2 entries already listed
SMILES	VDR inhibitor
O=S(=O)(c1ccccc1)N1CCN(CC2CC3C=CC2C3)CC1 (configuration not stated)	-8.3%
CC(=O)N/C(=C\c1ccc(C)o1)C(=O)NCc1ccccc1	-15.2%

Continuation.
SMILES	VDR inhibitor
COC(=O)C1=CO[C@@H](O[C@@H]2O[C@H](CO)[C@@H](O)[C@H](O)[C@H]2O)[C@H]2[C@@H]1C(=O)C[C@@H]2C	3.8%
CCCCOc1ccc(C(=O)NN2CCN(C)CC2)cc1	3.4%
Cc1nc2cnc(N(C)C)nc2n(C2CC2)c1=O	-5.4%
C[n+]1cccc(C(=O)O)c1	-10.4%
O=C(COc1ccc2c3c(c(=O)oc2c1)CCC3)NCCCN1CCOCC1	3.5%
c1ccc(-c2nc(N3CCN(c4ccccc4)CC3)nc(-n3ccnc3)n2)cc1	3.1%
Cc1ccc(-n2nnnc2SCc2nnc(-c3ccccc3Br)o2)c(C)c1	10.3%
N#Cc1c(SCC(=O)Nc2nc3ccccc3s2)sc2c(O)cc(=O)[nH]c12	-11.6%
CCOc1ccc(C(=O)Nc2ccncc2)cc1	7.9%

A draw from above in order of molecular weight, high to low:
SMILES	VDR inhibitor
Cc1ccc(-n2nnnc2SCc2nnc(-c3ccccc3Br)o2)c(C)c1	10.3%
c1ccc(-c2nc(N3CCN(c4ccccc4)CC3)nc(-n3ccnc3)n2)cc1	3.1%
CCCCOc1ccc(C(=O)NN2CCN(C)CC2)cc1	3.4%
CCOc1ccc(C(=O)Nc2ccncc2)cc1	7.9%
C[n+]1cccc(C(=O)O)c1	-10.4%

From PubChem BioAssay

The list is partial. The share of hits here may be higher or lower than overall.
